Screens: PubChem BioAssay, Broad Institute
BJeLR viability: lowers viability of BJeLR cells. BJeLR fibroblasts viability, CellTiterGlo ATP luminescence, 48 h; HRASV12, hTERT and SV40 LT/ST transformed. viability loss activity score, % (concentration not given with the values). 30,000 compounds, 0.64% hits. AID 2275; in the data active = viability loss activity score above about 50%; about a fifth of its hits are not listed in these tables;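 note: higher score means fewer live cells and less ATP luminescence; stock transfer was 50 or 100 nL into about 30 µL; 0% = vehicle wells and 100% = a reference killing control; one replicate is shown; the record names a cut of 85%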
A1 inh: A1 inhibition; MEF A1-2A-BIM cells, caspase-Glo luminescence, 3 h; percent of clofoctol signal, DMSO as zero; caspase activation, % (concentration not given with the values); 21,000 compounds, 0.51% hits;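 active = most replicate scores above 10, or exactly half above 10 with mean activity above 10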;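 note: effector caspase 3 and 7 activity cleaving a DEVD luciferin substrate; 50 nL library stock added to about 30 µL; numbers are from one replicate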
An asterisk follows results filed as active; / = no result given.

Start of the listing, in advance:
The line under a structure holds: BJeLR viability	A1 inh
C[C@@H]1CN([C@H](C)CO)C(=O)c2cc(NC(=O)C3CCCCC3)ccc2O[C@@H]1CN(C)C(=O)Nc1ccc(C(F)(F)F)cc1
→ -4.6	-0.3
C[C@@H]1CN([C@@H](C)CO)C(=O)c2cc(NC(=O)Nc3ccc(F)cc3)ccc2O[C@H]1CN(C)Cc1ccc(Oc2ccccc2)cc1
→ 1.4	0.4
C[C@H]1CN([C@@H](C)CO)C(=O)c2cc(NC(=O)Cn3cnnn3)ccc2O[C@H]1CN(C)Cc1ccc(-c2ccccc2)cc1
→ -5.3	-0.3
C[C@@H]1CN([C@H](C)CO)C(=O)c2cc(NC(=O)Nc3ccc(C(F)(F)F)cc3)ccc2O[C@@H]1CN(C)Cc1ccc(C(F)(F)F)cc1
→ 0.2	-0.1
CCOC(=O)c1nn(-c2ccc(OC)cc2)c(=O)c2c(N)scc12
→ -4.7	/
CC1CCCCN1CCNc1ccc2nnc(-c3ccc(F)cc3)n2n1 (stereo not given)
→ -4.4	0.7

The listing, from the first entry:
The line under a structure holds: BJeLR viability	A1 inh
C[C@@H]1CN([C@H](C)CO)C(=O)c2cc(NC(=O)C3CCCCC3)ccc2O[C@@H]1CN(C)C(=O)Nc1ccc(C(F)(F)F)cc1
→ -4.6	-0.3
C[C@@H]1CN([C@@H](C)CO)C(=O)c2cc(NC(=O)Nc3ccc(F)cc3)ccc2O[C@H]1CN(C)Cc1ccc(Oc2ccccc2)cc1
→ 1.4	0.4
C[C@H]1CN([C@@H](C)CO)C(=O)c2cc(NC(=O)Cn3cnnn3)ccc2O[C@H]1CN(C)Cc1ccc(-c2ccccc2)cc1
→ -5.3	-0.3
C[C@@H]1CN([C@H](C)CO)C(=O)c2cc(NC(=O)Nc3ccc(C(F)(F)F)cc3)ccc2O[C@@H]1CN(C)Cc1ccc(C(F)(F)F)cc1
→ 0.2	-0.1
CCOC(=O)c1nn(-c2ccc(OC)cc2)c(=O)c2c(N)scc12
→ -4.7	/
CC1CCCCN1CCNc1ccc2nnc(-c3ccc(F)cc3)n2n1 (stereo not given)
→ -4.4	0.7
C[C@H](CO)N1C[C@H](C)[C@@H](CN(C)C(=O)Nc2cccc3ccccc23)Oc2ccc(NC(=O)C3CCCCC3)cc2C1=O
→ 0.3	1.6
COc1ccc(NC(=O)Nc2cccc3c2O[C@H](CN(C)S(=O)(=O)c2ccc(OC)cc2)[C@H](C)CN([C@H](C)CO)C3=O)cc1
→ -4.0	/
CCc1ccc(-n2cc3c(c(C#N)c2=N)CC(C)(C)CC3=O)cc1
→ -2.4	0.6
O=C(NCc1ccc(S(=O)(=O)NCCN2CCOCC2)s1)c1ccccc1
→ -4.7	1.6
O=C1C2C3C=CC(C3)C2C(=O)N1CCC1=CCCCC1 (stereo not given)
→ 2.0	/
COc1cc(NS(=O)(=O)c2ccc(NC(=S)NC(=O)c3ccco3)cc2)ncn1
→ 0.2	0.7
c1ccc(-c2ccc3c4ccccc4cc-3o2)cc1
→ -5.5	-3.3
CC/C(=N/O)C(=O)c1ccc(Br)cc1
→ 0.7	-1.0
C[C@@H]1CN([C@H](C)CO)C(=O)c2cc(NC(=O)Cc3ccccc3)ccc2O[C@@H]1CN(C)S(=O)(=O)c1cn(C)cn1
→ 1.3	-0.1
CC(C)NC(=O)N(C)C[C@@H]1Oc2ccc(NC(=O)c3ccncc3)cc2C(=O)N([C@@H](C)CO)C[C@@H]1C
→ 11	-0.3
O=C(NC1CCCCCCC1)c1ccc(CNS(=O)(=O)c2ccc(F)cc2)cc1
→ 2.2	-0.5
O=C(CCC(=O)Nc1cccc2ccccc12)Nc1cccc2ccccc12
→ 2.2	0.0
CCOC(=O)N1CCN(C(=O)CCCn2c(=S)[nH]c3ccc(Br)cc3c2=O)CC1
→ -0.6	0.6
CNC[C@@H]1Oc2ccc(NS(C)(=O)=O)cc2C(=O)N([C@@H](C)CO)C[C@@H]1C
→ -4.4	1.6

Continued.
The line under a structure holds: BJeLR viability	A1 inh
CN(C1CCCCC1)S(=O)(=O)c1ccc(N)cc1
→ -3.9	0.5
C[C@H]1CN([C@@H](C)CO)C(=O)c2cc(NC(=O)CCN3CCOCC3)ccc2O[C@H]1CN(C)C(=O)Nc1cccc2ccccc12
→ -3.4	0.5
CN(C)/C=C1\N=C(c2cccnc2Oc2ccc(Cl)cc2)OC1=O
→ -1.9	0.7
C[C@@H]1CN([C@H](C)CO)C(=O)c2cccc(NC(=O)C3CCCCC3)c2O[C@@H]1CN(C)Cc1ccc2c(c1)OCO2
→ 11	/
C[C@H](CO)N1C[C@H](C)[C@H](CN(C)Cc2ccc(-c3ccccc3)cc2)Oc2ccc(NS(=O)(=O)c3ccc(F)cc3)cc2C1=O
→ -7.3	0.2
COc1ccc(S(=O)(=O)N(C)C[C@H]2Oc3ccc(NC(=O)CCC(F)(F)F)cc3C(=O)N([C@H](C)CO)C[C@H]2C)cc1
→ 9.4	-0.6
C[C@H]1CN([C@@H](C)CO)C(=O)c2cccc(NC(=O)Nc3ccccc3)c2O[C@H]1CN(C)S(=O)(=O)c1ccccc1
→ -0.7	/
COc1ccc(S(=O)(=O)Nc2ccc3c(c2)C(=O)N([C@@H](C)CO)C[C@@H](C)[C@H](CN(C)Cc2ccncc2)O3)cc1
→ -1.7	0.8
CC1=NN(C(=O)c2ccc(Cl)cc2)C(C)(C)C1
→ -4.6	-0.5
C=C1C2CC[C@@]3(C)[C@H](c4ccoc4)OC(=O)C[C@]13O[C@H]1CC(=O)C(C)(C)C(CC(=O)OC)[C@@]21C (stereo not given in full)
→ -6.7	-0.4
C[C@H](CO)N1C[C@H](C)[C@@H](CN(C)C(=O)Nc2ccc(C(F)(F)F)cc2)Oc2ccc(N(C)C)cc2C1=O
→ 1.6	-0.3
O=C(NCc1ccc(Cl)cc1)c1ccc2c(c1)N(Cc1cccc(F)c1)C(=O)CS2=O (stereo not given)
→ -0.2	0.6
O=C(NCc1ccc(Cl)cc1)C1CCC(CNS(=O)(=O)c2ccc(Cl)cc2)CC1 (stereo not given)
→ -2.5	-0.1
C[C@@H]1CN([C@@H](C)CO)C(=O)c2cc(NC(=O)Nc3ccc4c(c3)OCO4)ccc2O[C@H]1CN(C)C
→ -1.1	-0.2
Cc1ccc(S(=O)(=O)N(C)C[C@@H]2Oc3c(NC(=O)NC(C)C)cccc3C(=O)N([C@@H](C)CO)C[C@@H]2C)cc1
→ 0.9	/
C[C@H]1CN([C@@H](C)CO)C(=O)c2cc(NS(=O)(=O)c3ccc(F)cc3)ccc2O[C@H]1CN(C)S(=O)(=O)c1ccccc1
→ -1.1	0.4
Cc1cccc(NC(=S)N2CCn3cccc3C2c2cccs2)c1 (stereo not given)
→ 2.3	0.6
O=C(NC(C(=O)c1ccccc1)n1cnccc1=O)c1ccccc1 (stereo not given)
→ 2.2	-0.3
O=C1OC(c2ccccc2)=N/C1=C\N1CCCCC1
→ -6.2	-1.2
Fc1nc(N2CCOCC2)c2c(c1Cl)Oc1ccccc1O2
→ 5.8	-0.4

(cont.)
The line under a structure holds: BJeLR viability	A1 inh
Nc1c(O)cccc1C(=O)O
→ -6.9	-1.0
C[C@H](CO)N1C[C@H](C)[C@@H](CN(C)S(=O)(=O)c2cn(C)cn2)Oc2ccc(NC(=O)Nc3ccc4c(c3)OCO4)cc2C1=O
→ -5.8	1.0
Cc1noc(C)c1NC(=O)N(C)C[C@@H]1Oc2ccc(NC(=O)Nc3ccc(F)cc3)cc2C(=O)N([C@@H](C)CO)C[C@@H]1C
→ -3.3	0.1
CCC(=O)NC(c1ccco1)c1c(OC(C)=O)ccc2ccccc12 (stereo not given)
→ 2.9	0.0
Cc1c(/C=C2\SC(=Nc3ccccc3)N(C3CCCC3)C2=O)c2ccccc2n1CC(N)=O
→ -2.3	-1.3
C[C@H](CO)N1C[C@H](C)[C@H](CN(C)C(=O)NC2CCCCC2)Oc2ccc(NC(=O)Cn3cnnn3)cc2C1=O
→ 1.4	-1.1
O=C(NC(OCc1ccccc1)(C(F)(F)F)C(F)(F)F)c1ccccc1
→ 1.9	-0.5
CN(C(=O)c1cc2c(s1)-c1ccccc1S(=O)(=O)C2)c1ccccc1
→ -6.4	0.6
C[C@H]1CN([C@@H](C)CO)C(=O)c2cccc(NS(=O)(=O)c3ccccc3)c2O[C@@H]1CN(C)S(=O)(=O)c1cccs1
→ -4.6	/
COc1ccc(S(=O)(=O)Nc2ccc3c(c2)C(=O)N([C@H](C)CO)C[C@H](C)[C@@H](CN(C)CC2CC2)O3)cc1
→ 6.6	0.1
CCCS(=O)(=O)N1CCCC(C(=O)NC)C1 (stereo not given)
→ -1.7	0.4
C[C@@H]1CN([C@@H](C)CO)C(=O)c2cccc(NC(=O)C3CCOCC3)c2O[C@H]1CN(C)S(C)(=O)=O
→ 4.2	/
C[C@H]1CN([C@@H](C)CO)C(=O)c2cccc(NC(=O)c3cnccn3)c2O[C@H]1CN(C)S(=O)(=O)c1ccc(F)cc1
→ 6.5	/
C[C@@H]1CN([C@H](C)CO)C(=O)c2cccc(NS(=O)(=O)c3cn(C)cn3)c2O[C@H]1CN(C)Cc1ccc(Cl)c(Cl)c1
→ 8.7	/
COC(=O)CCS(=O)(=O)c1cccc2c(S(=O)(=O)CCC(=O)OC)cccc12
→ 1.2	0.3
COc1ccc(S(=O)(=O)N(C)C[C@H]2Oc3c(NC(=O)Nc4ccccc4)cccc3C(=O)N([C@H](C)CO)C[C@@H]2C)cc1
→ -2.5	/
COc1ccc(S(=O)(=O)N(C)C[C@H]2Oc3c(NC(=O)Nc4ccc(F)cc4)cccc3C(=O)N([C@H](C)CO)C[C@@H]2C)cc1
→ 8.6	/
COc1ccc(/C=N/C2=NNC(=O)C(CC(=O)O)S2)cc1 (stereo not given)
→ 4.4	-5.6
COc1ccc(NC(=O)Nc2ccc3c(c2)C(=O)N([C@H](C)CO)C[C@H](C)[C@@H](CN(C)Cc2ccc(C(F)(F)F)cc2)O3)cc1
→ 2.2	0.4
O=S(=O)(NCCc1cn2ccccc2n1)c1ccc2c(c1)CCCC2
→ 1.1	0.0

Further structures follow.
The line under a structure holds: BJeLR viability	A1 inh
C[C@H](CO)N1C[C@H](C)[C@H](CN(C)Cc2ccc(C(=O)O)cc2)Oc2c(NC(=O)Nc3cccc4ccccc34)cccc2C1=O
→ 0.8	/
COc1ccc(NC(=O)N(C)C[C@@H]2Oc3ccc(N(C)C)cc3C(=O)N([C@H](C)CO)C[C@@H]2C)cc1
→ 2.7	0.8
CCOC(=O)c1cc(CC)sc1NC(=S)Nc1ccccc1C(F)(F)F
→ 0.7	1.7
C[C@H](CO)N1C[C@H](C)[C@H](CN(C)S(=O)(=O)c2cn(C)cn2)Oc2ccc(NC(=O)Nc3ccccc3)cc2C1=O
→ 4.0	-0.6
Cc1ccc(CNC(=O)CCSCc2ccc(C)cc2)cc1
→ -0.6	-0.4
COc1ccc(NC(=O)N(C)C[C@@H]2Oc3c(NS(=O)(=O)c4ccc(F)cc4)cccc3C(=O)N([C@H](C)CO)C[C@H]2C)cc1
→ -0.8	/
C[C@H](CO)N1C[C@H](C)[C@H](CN(C)Cc2ccc3c(c2)OCO3)Oc2ccc(NC(=O)c3ccncc3)cc2C1=O
→ 2.1	-0.6
C(=Nc1cccc2ccccc12)c1c[nH]c2ccccc12
→ -2.6	0.4
NC(=O)Cn1c(=O)n(CCC(=O)NCCc2ccc(Cl)cc2)c(=O)c2sccc21
→ -8.4	/
O=C(NN1C(=O)S/C(=C/c2ccc(Cl)cc2)C1=S)c1ccccc1Cl
→ -1.2	-0.3
C[C@@H]1CN([C@@H](C)CO)C(=O)c2cccc(NC(=O)c3ccc(-c4nccs4)cc3)c2O[C@@H]1CN(C)S(=O)(=O)c1cn(C)cn1
→ -5.0	/
C=CCN1C(=O)C(CC(=O)Nc2ccccc2)N(Cc2ccccn2)C1=S (stereo not given)
→ -2.3	/
CCc1ccc2[nH]c(C(=O)NCc3ccccc3)cc2c1
→ -0.3	0.7
C[C@H](CO)N1C[C@H](C)[C@H](CN(C)C(=O)Nc2ccccc2)Oc2ccc(NC(=O)CCN3CCOCC3)cc2C1=O
→ -1.0	-0.3
FC(F)(F)COc1ccc(-c2nnc(SCc3ccccc3C(F)(F)F)o2)cn1
→ 1.8	0.5
CC(C)NC(=O)N(C)C[C@@H]1Oc2ccc(N(C)C)cc2C(=O)N([C@H](C)CO)C[C@@H]1C
→ 0.2	0.0
Cc1ccc2cc(CCNC(=O)c3ccc(S(=O)(=O)N(C)C)cc3)c(=O)[nH]c2c1
→ 4.0	/
C[C@]12C[C@H](O)[C@H]3[C@@H](CCC4=CC(=O)CC[C@@]43C)[C@@H]1CC[C@@H]2C(=O)CO
→ -6.0	0.1
CCC(Sc1nc(-c2ccccc2)c(-c2ccccc2)[nH]1)C(=O)O (stereo not given)
→ 0.3	-0.2
CCOC(=O)/C(=N\O)C1=CSC2=NNC(C)(C)N12
→ -4.8	-0.9

Further results:
The line under a structure holds: BJeLR viability	A1 inh
C[C@H](CO)N1C[C@H](C)[C@@H](CN(C)C(=O)Nc2ccc(C(F)(F)F)cc2)Oc2c(NS(C)(=O)=O)cccc2C1=O
→ -1.6	/
C[C@H]1CN([C@@H](C)CO)C(=O)c2cc(N(C)C)ccc2O[C@H]1CN(C)C(=O)Nc1cccc2ccccc12
→ 15	0.5
COC(=O)CNC(=O)c1cc2c(=O)[nH]c3ccccc3c2s1
→ 8.4	/
CC1(C)Cc2nc3sc4c(NCC5CCCO5)ncnc4c3cc2CO1 (stereo not given)
→ 2.6	-1.1
Nc1ccc(S(=O)(=O)C(F)(F)F)cc1
→ -2.4	-0.1
C[C@@H]1CN([C@H](C)CO)C(=O)c2cc(NC(=O)C3CCCCC3)ccc2O[C@@H]1CN(C)Cc1ccc2c(c1)OCO2
→ 1.8	-0.4
CCSc1nc2c(c(=O)[nH]1)C(C(C)C)C(C#N)=C(N)O2 (stereo not given)
→ -7.5	0.2
COc1ccc(C2NC(CC(C)C)(C(=O)O)C3C(=O)N(c4ccccc4OC)C(=O)C23)cc1 (stereo not given)
→ -1.3	/

Only part of the results is shown. The share of hits here may be higher or lower than overall.
